Source: PubChem BioAssay
Cruzain inh noDet: inhibitors of Trypanosoma cruzi cruzain without detergent. P25779. purified cruzain, Z-FR-AMC fluorescence, no detergent. Potency, µM, inactives show max response, negative = inhibition, hits mostly inhibitors. 2.3% of 200,000 active; active = well fitted curve in the direction sought with a large enough effect; inconclusive = small, poorly fitted or top-dose-only effect, or another doubt; inactive = no such curve, though single readings can be large; an effect the other way counts as inactive or inconclusive;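 also: plate controls were enzyme without inhibitor for no effect and buffer without enzyme for full effect; nearly all actives have a fitted effect of over 40% in size; top concentration of the series not given in the record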
Target sequence (P25779 123-467 limits assumed): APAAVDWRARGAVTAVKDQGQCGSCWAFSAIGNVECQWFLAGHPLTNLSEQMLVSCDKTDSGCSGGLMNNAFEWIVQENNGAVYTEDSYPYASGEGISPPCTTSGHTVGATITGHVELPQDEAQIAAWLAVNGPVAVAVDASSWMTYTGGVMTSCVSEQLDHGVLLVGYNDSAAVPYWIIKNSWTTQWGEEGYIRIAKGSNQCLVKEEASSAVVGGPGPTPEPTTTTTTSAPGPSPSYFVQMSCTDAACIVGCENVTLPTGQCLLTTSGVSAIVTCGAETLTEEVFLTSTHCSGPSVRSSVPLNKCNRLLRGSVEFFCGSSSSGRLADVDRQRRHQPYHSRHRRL
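Detergent-free condition (0.00005% Triton X-100) in acetate buffer pH 5.5 with DTT. 1.5 nM enzyme and compound were pre-mixed 15 min, then 2 uM Z-FR-AMC substrate added; reaction progress from fluorescence change between first and third reads (60 s).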
2A StopGo: FMDV 2A StopGo reporter, luciferase signal. human cells with a luciferase reporter of 2A StopGo recoding; control for the full effect not named in the record. 1.2% of 410,000 active. Potency, µM (titrated, usually from 57.9 µM), for the others: at the top dose signal change, negative = less light. AID 1159524; active = well fitted falling curve with a large enough effect; inconclusive = small, poorly fitted or top-dose-only effect; inactive = no such curve, though single readings can be large or run the other way; tested in HEK293T cells; also: % is scaled to controls: 0 for no effect and ±100 for the full control effect; nearly all actives have a fitted effect of over 45% in size; luciferase light after 4 h
Cruzain Triton: blocks cruzain activity in presence of Triton detergent | Potency, µM, inactives show max response, negative = inhibition, usual class: inhibitors | 0.43% of 200,000 active | purified cruzain, Z-FR-AMC fluorescence, 0.01% Triton; active = well fitted curve in the direction sought with a large enough effect; inconclusive = small, poorly fitted or top-dose-only effect, or another doubt; inactive = no such curve, though single readings can be large; an effect the other way counts as inactive or inconclusive;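 also: plate controls were neutral wells for no effect and buffer without enzyme for full effect; nearly all actives have a fitted effect of over 40% in size; top concentration of the series not given in the record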
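Enzyme 1.5 nM, Z-FR-AMC 2 uM, NaOAc 100 mM pH 5.5, DTT 5 mM, Triton X-100 0.01%; 15 min RT compound preincubation; kinetic ex360/em450, 60 s delta.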
MARV entry inh: Marburg virus entry inhibition. Marburg virus pseudotyped entry inhibition, cell reporter; control for the full effect not named in the record; about a third of the inactives were read at about 46 µM. Potency, µM (top dose mostly 37.8 µM), for inactives: at the top dose activity change, negative = inhibition, usual class: inhibitors. 1.8% of 300,000 active; active = well fitted inhibition curve with a large enough effect; inconclusive = small, poorly fitted or top-dose-only effect, or effect the other way; inactive = flat fitted curve, though single readings scatter; tested in HEK293 cells; about a fifth of its hits are not listed in these tables; also: % is scaled to controls: 0 for no effect and ±100 for the full control effect; luciferase read-out
RE007 growth inh: less growth of the S. pombe RE007 Vpr strain; S. pombe RE007 Vpr strain, BacTiter-Glo ATP luminescence, 24 h; control for the full effect not named in the record; Potency, µM (highest dose often 92.2 µM), inactives show at the top dose activity change, negative = less growth; 0.21% of 360,000 active; AID 651644; active = well fitted falling curve with a large enough effect; inconclusive = small, poorly fitted or top-dose-only effect; inactive = no such curve, though single readings can be large or run the other way;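 also: % is scaled to controls: 0 for no effect and ±100 for the full control effect; nearly all actives have a fitted effect of over 50% in size; the assay follows cell death caused by Vpr and the record does not say whether a fall means rescue or toxicity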
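Fission yeast RE007 carrying one integrated HIV-1 vpr copy, seeded at OD 0.01 in PMG+AL medium with 23 nL pinned compound. Grown 24 h at 30 degrees; viability read by BacTiter-Glo luminescence after 5 min.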
SARS PLP yeast: SARS-CoV PLP inhibition in yeast. 0.19% of 330,000 active. AID 485353. S. cerevisiae expressing SARS-CoV PLpro, growth rescue; control for the full effect not named in the record. Potency, µM (highest dose often 32.9 µM), for the others: at the top dose activity, positive = growth rescue; also: 0% is about no effect; nearly all actives have a fitted effect of over 55% in size; growth read by luminescence after 48 h
NS1 function inh: inhibitors of influenza NS1 protein function. Potency, µM (doses to about 46.1 µM), without a hit: top-dose activity, positive = more growth. 0.4% of 270,000 active. AID 2326. S. cerevisiae slowed by influenza A NS1, growth recovery by OD600; also: actives are rising curves; nearly all actives have a fitted effect of over 50% in size
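S. cerevisiae expressing influenza A NS1, grown in glucose, washed, then diluted 1:100 into pH 6.0 -URA galactose medium with 23 nl compound. Growth recovery read as OD600; NS1-free strain serves as control.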
LASV entry inh: blocks Lassa virus binding to or entry into cells; Lassa virus pseudotype entry inhibition, cell reporter; control for the full effect not named in the record; Potency, µM (titrated, usually from 37.9 µM), inactives show at the highest dose activity change, negative = inhibition, usual class: inhibitors; 1.2% of 300,000 active; AID 540256; active means well fitted inhibition curve with a large enough effect; inconclusive means small, poorly fitted or top-dose-only effect, or effect the other way; inactive means flat fitted curve, though single readings scatter; tested in HEK293 cells; also: % is scaled to controls: 0 for no effect and ±100 for the full control effect; nearly all actives have a fitted effect of over 50% in size; luciferase read-out
Active calls of the source: *; ? = inconclusive; . = no result given; & = joins results of further samples; [ ] = another dose, or the depositor's remark. Unless noted, calls follow the shape of the dose curve; as a rule, active means well fitted rising curve with a large enough effect; inconclusive means small, poorly fitted or top-dose-only effect; inactive means no such curve, though single readings can be large or run the other way. Potency is read from the fitted curve at half-maximal effect.

SMILES | Cruzain inh noDet | 2A StopGo | Cruzain Triton | MARV entry inh | RE007 growth inh | SARS PLP yeast | NS1 function inh | LASV entry inh
O=C(CSc1ccc(Br)cc1)NC1CCS(=O)(=O)C1 (centres undefined) | . | -6% | . | 2% | 2% | -5% | . | -14%
CCOc1cccc(NC(=O)CSc2ncc(-c3ccc(Cl)cc3)[nH]2)c1 | ? | 11% | -10% | -6%[46.1 µM] | . | . | . | -13%[46.1 µM]
Cc1ccc(C2C(=O)N(C3CCC(C)CC3)CC(=O)N2C2CCCC2)cc1 (centres undefined) | -11%&-5% | -19%&-18% | 0.5%&3.0% | -25%&-25% | 2% | -6% | 3% | 14%[46.1 µM]
CCC(=Nc1ccc(OC)cc1OC)c1c(O)[nH]c(=O)[nH]c1=O | -16% | -10% | -0.5% | ? | ? | -5% | 2% | ?
CCOC(=O)C1CCCN(CC(=O)Nc2c(C(=O)OC)[nH]c3ccc(Cl)cc23)C1 (centres undefined) | 11% | 0% | -4.0% | ? | -15% | -1% | -18% | -24%
O=C(NCc1ccco1)c1cc(-c2ccccc2)on1 | -18% | 73%[activator] | 3.7% | 19% | -17% | -4% | -2% | 19%
COc1ccc(C(=O)CSc2nnc(C3CC3)n2N)cc1 | -2% | 17% | 0.6% | 0% | 3% | 2% | -9% | -18%
COc1ccc(OC)c(/C=C/C(=O)OCC(=O)N2CCN(S(=O)(=O)c3ccc(C)cc3C)CC2)c1 | . | -16% | . | -19% | -3% | -3% | . | -5%
CCCc1n(CC(O)COCc2ccccc2)c2ccccc2[n+]1C (centres undefined) | . | 26% | . | 0%[46.1 µM] | -1% | -1% | . | 29%[46.1 µM]
O=[N+]([O-])c1cccc(-c2nnc3n2CCCCC3)c1 | . | 2% | . | 1%[46.1 µM] | -4% | -2% | -5% | 9%[46.1 µM]
O=c1[nH]c(-c2ccccc2)nnc1-c1ccccc1 | . | 0% | . | -1% | -4% | 0% | -2% | -20%
C=CCn1c(C)nnc1SCC(=O)Nc1nccs1 | . | 0% | . | . | -5% | 2% | 6% | .
Cc1ccc(CNc2nc(-c3ccco3)nn2S(=O)(=O)c2ccc3ccccc3c2)cc1 | ? | 26% | -3.0% | ? | . | . | . | 11%[46.1 µM]
Cc1cc(OC(=O)CNC(=O)OC(C)(C)C)c2c(C)cc(=O)oc2c1 | 8% | -17% | -2.7% | -11% | 0% | -2% | -38% | 7%
Cc1c(Cl)c([N+](=O)[O-])nn1CC(=O)Nc1c(C)n(C)n(-c2ccccc2)c1=O | 9% | -18% | 0.3% | -3% | 5% | -2% | -7% | 6%
O=C(COC(=O)c1ccccc1C(=O)c1ccc(Cl)c([N+](=O)[O-])c1)NC1CC1 | . | 20µM* | . | ? | -2% | 6% | . | ?
Cc1ccc2[nH]c(=O)c(C(c3nnnn3CC3CCCO3)N3CCc4ccccc4C3)cc2c1 (centres undefined) | -13% | 18% | -1.9% | 15%&15% | 4% | 1% | 3% | 23%
CC(C)(C)c1ccc(/C=C/C(=O)NCCCn2ccnc2)cc1 | . | 7% | . | ? | 2% | 1% | 6% | 0%
O=C(CCCN1C(=O)/C(=C/c2cccs2)SC1=S)Nc1ccc(O)cc1 | . | 5% | . | ? | 7% | 0% | -6% | ?
Cc1ccc(C(c2sc3nc(C)nn3c2O)N2CCOCC2)cc1 (centres undefined) | -8% | -9% | 1.1% | -3%[46.1 µM] | -10% | 12% | -2% | 31%
O=C(Nc1sc2c(c1C(=O)O)CCCCC2)c1ccccc1F | . | -12% | . | ? | ? | -4% | . | ?
COc1ccccc1N1CCN(C(=O)CSc2nnc(NC(=O)C3CCC3)s2)CC1 | 19% | ? | 2.2% | 4%[46.1 µM] | -12% | -6% | -4% | -4%
CCC(=O)NC(=S)Nc1ccc(S(=O)(=O)N2CCN(C)CC2)cc1 | -16% | -16% | -1.3% | 4% | -3% | 8% | -11% | 3%
COc1ccc(Nc2nc(N)nc(CSCCO)n2)cc1 | -2% | 53%[activator] | 5.4% | -2%[46.1 µM] | 14% | 4% | -2% | 20%
CC(C)CCNC(=O)CN(CCN1CCOCC1)C(=O)Cn1nnc(-c2ccc(F)cc2)n1 | 6% | -12% | -1.0% | 3%&24% | -14% | -5% | 3% | 16%
Cc1onc(-c2c(Cl)cccc2Cl)c1C(=O)NCCc1ccncc1 | . | -24% | . | -5% | -24% | 5% | 1% | 0%
O=C(NCc1ccc(F)cc1)c1ccc(Nc2nc3ccccc3n3nnnc23)cc1 | 12% | 4% | -0.4% | -18%[46.1 µM] | . | . | . | 10%[46.1 µM]
O=[N+]([O-])c1ccc(/C=N/Nc2ccccn2)cc1 | . | 3% | . | . | 4% | -4% | -3% | .
Cc1cccc(C)c1NC(=O)c1cccn(Cc2ccc3c(c2)OC(F)(F)O3)c1=O | 25% | ? | -11% | ? | -8% | 0% | -5% | -7%
CCCCNC(=O)c1ccc2c(c1)NC(=O)C(CS(=O)(=O)Cc1cccc(C)c1)N2 (centres undefined) | -14% | -19% | -2.3% | . | . | . | . | ?
COc1ccc(-c2cc(C#N)nc(N3CCN(C)CC3)n2)cc1 | 16µM* | -17% | 25µM* | ? | -8% | 13% | -12% | 14%
Cc1ccc(C2CC(=O)NC(SCC(=O)Nc3nccs3)=C2C#N)cc1 (centres undefined) | -4% | -19% | -1.2% | -1% | -1% | 0% | 6% | -11%
O=C(O)c1cccc(Nc2c([N+](=O)[O-])c(=O)oc3ccccc23)c1 | . | 15% | . | . | 2% | -1% | 6% | .
NC(=O)CSc1nnc(Cn2c(=O)sc3ccccc32)n1-c1ccccc1 | -7% | 1% | -1.8% | . | 2% | 21% | 1% | .
CC(C)c1ccc(/C=N/n2c(-c3ccccc3)n[nH]c2=S)cc1 | . | 3% | . | . | 2% | 0% | 6% | .
CCOC(=O)c1ccc(NC(=O)C2CCN(C(=O)c3ccc(OC)c(OC)c3)CC2)cc1 | 9% | ? | 0.1% | ? | 17% | ? | 0% | ?
Cc1ccsc1-c1nc(C(N)=O)c2[nH]c(=O)n(-c3ccc(Cl)cc3)c2n1 | 10µM* | -8% | 0.1% | 12% | 30% | 3% | -14% | ?
O=C(Cn1cncn1)c1ccccc1Br | . | 7% | . | 6%[46.1 µM] | 6% | 1% | 3% | 16%[46.1 µM]
Cc1nn(CC(=O)O)c(=O)c2ccccc12 | -5% | 23% | 11% | 7% | 2% | 5% | 3% | -21%
CCc1ccc(/C(C)=N\Nc2ccc([N+](=O)[O-])cc2)cc1 | -16% | 0% | 3.1% | ? | 22% | -6% | -65% | ?
COc1ccccc1CCNC(=O)Cn1ccc2cc(S(=O)(=O)N3CCCC3)ccc21 | . | -4% | . | . | 3% | -3% | 2% | .
Clc1ccc(C2Nc3cccc4cccc(c34)N2)cc1 | . | 7% | . | 27%[46.1 µM] | -22% | 0% | 12% | 12%[46.1 µM]
CCN(CC(=O)Nc1ccc2c(c1)OCCO2)C(=O)c1ccc(Cl)cc1Cl | . | 5% | . | -10% | 2% | -1% | . | ?
CCCN(CCC)S(=O)(=O)c1ccc(C(=O)N2CCOCC2)cc1 | 6% | 4% | 5.8% | 9% | -1% | 28% | 1% | -10%
COc1ccc(CN2CCC(C(=O)N3CCCC(C)C3)CC2)cc1OC (centres undefined) | . | -23% | . | -12% | -11% | 0% | 3% | -1%
Cc1cc(C(F)(F)F)nc(-n2cc(-c3cccc(N)c3)nn2)n1 | . | 3% | . | ? | 7% | -2% | 0% | -14%[46.1 µM]
Cc1cc(NC(=O)c2cc(-c3ccc4c(c3)OCO4)on2)n(-c2ccccc2)n1 | ? | 19% | 1.4% | ? | -10% | 12% | -2% | 3%
Cc1sc2nc(-c3ccccn3)[nH]c(=O)c2c1-c1ccccc1 | . | 7% | . | ? | ? | -3% | . | ?
O=C(NCCc1c[nH]c2ccccc12)c1cc([N+](=O)[O-])cc([N+](=O)[O-])c1 | . | -24% | . | . | -1% | 0% | -2% | .
CC(=O)N1CCc2cc(C(=O)CN3CCCN(Cc4ccc(F)cc4)C3)ccc21 | 0% | . | -1.5% | 3% | . | -6% | 3% | .

Next part.
SMILES | Cruzain inh noDet | 2A StopGo | Cruzain Triton | MARV entry inh | RE007 growth inh | SARS PLP yeast | NS1 function inh | LASV entry inh
CC(C)c1ccc(C(CC(=O)c2ccc(Cl)cc2)C(=O)O)cc1 (centres undefined) | 9% | 1% | 1.2% | ? | -6% | -23% | -93% | 11%
O=C(OCC(=O)N(Cc1ccccc1)Cc1ccccc1)c1cccc(O)c1 | . | 15% | . | ? | 5% | 1% | . | ?
Nc1nc(C2CCCN2S(=O)(=O)c2ccc(Cl)cc2)cs1 (centres undefined) | 8% | -1% | 1.5% | 0%[46.1 µM] | 5% | -5% | -2% | 1%
Cc1ccc(NC(=O)C2CCN(S(=O)(=O)c3c(C)noc3C)CC2)cc1 | 11% | -18% | -0.6% | 19%[46.1 µM] | . | . | . | -8%[46.1 µM]
CC(=O)N1c2ccccc2CC1C(=O)N1CCN(c2ccccc2F)CC1 (centres undefined) | 15% | -2% | 0.6% | . | . | . | . | 26%[46.1 µM]
CCOc1ccc(/C=C2\SC(=S)N(CCC(=O)O)C2=O)cc1 | . | 0.32µM* | . | ? | -9% | 5% | -5% | -24%[46.1 µM]
Cc1cccn2c(=O)c(/C=C3\SC(=S)NC3=O)c(NCCCN3CCOCC3)nc12 | . | -23% | . | . | 1% | -2% | 7% | .
COc1ccc(C2SCC(C(=O)O)N2C(C)=O)cc1OC (centres undefined) | 1% | 5% | 1.2% | . | -14% | 2% | -34% | .
COCCCn1c(=O)c2ccccc2n(Cc2cccc(C)c2)c1=O | . | -19% | . | . | -7% | 21% | -16% | .
Cc1[nH]n(-c2ccccc2)c(=O)c1/C=N/N1C(=O)c2ccc3c4c(ccc(c24)C1=O)CC3 | -6% | -24% | -4.5% | -24% | -4% | -3% | 2% | -3%
Cn1cnnc1SCC(=O)Nc1ccccc1Sc1ccccc1 | -2% | 10% | -2.5% | -10% | -9% | 11% | 0.89µM* | -9%

Outcome played no part in choosing rows. Share with any hit: about 4.7%.
